# HPGD inh = HPGD (human) dehydrogenase inhibition; P15428; purified HPGD, NADH fluorescence kinetic, PGE2 substrate; Potency, µM, for the others: at the highest dose activity change, negative = inhibition, actives largely listed as inhibitors; hit rate 4.3% among 150,000; AID 894; active = well fitted inhibition curve with a large enough effect (not every such curve was filed as active); inconclusive = small, poorly fitted or top-dose-only effect, or another doubt; inactive = no such curve, though single readings can be large or run the other way;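 note: top concentration of the series not given in the record; plate controls included wells without enzyme; inactives centre near -10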
# Target sequence (P15428 whole entry, looked up): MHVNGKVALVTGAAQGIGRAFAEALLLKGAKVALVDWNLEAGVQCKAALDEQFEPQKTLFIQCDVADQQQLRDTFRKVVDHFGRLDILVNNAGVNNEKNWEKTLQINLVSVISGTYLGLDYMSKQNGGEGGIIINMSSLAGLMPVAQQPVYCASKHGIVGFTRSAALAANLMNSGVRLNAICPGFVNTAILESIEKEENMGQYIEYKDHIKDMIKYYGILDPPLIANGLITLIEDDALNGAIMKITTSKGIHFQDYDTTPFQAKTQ
#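 20 nM HPGD preincubated 15 min at room temperature with compound in 50 mM Tris-HCl pH 8, 0.01% Tween 20. Started with 1 mM NAD+ and 30 uM prostaglandin E2; NADH fluorescence (360/450 nm) read 5 times over 30-s intervals, last minus first.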
# The depositor's hits bear a star; u = inconclusive; & = joins results of further samples. % is set by controls: 0 for no effect and ±100 for the full control effect; potency is the fitted concentration of half-maximal effect. Not all compounds are listed; the hit share may differ from the screen's.
HPGD inh	SMILES
-19.1%	CCOC(=O)c1c(NC(=O)C(C)Sc2cccc[n+]2[O-])sc2c1CCN(Cc1ccccc1)C2 (configuration not stated)
-24.7%	Cn1ncc(Br)c1C(=O)N/N=C/c1cccc(OC2CSC2)c1
-10.2%	Cc1ccc(C2C(=O)N(C3CCCC3)CC(=O)N2CC2COc3ccccc3O2)cc1 (configuration not stated)
-12.3%	CN1CCN(S(=O)(=O)c2ccc(N)cc2)CC1
u	Cc1cccc(OCc2nnc(SCC(=O)c3ccccc3)o2)c1
-6.7%	CCOC(=O)c1oc2cc(O)ccc2c(=O)c1-c1csc(C)n1
-21.3%	O=C(CSc1nc2ccccc2c(=O)n1Cc1ccco1)N1CCN(c2ccccc2)CC1
-23.4%	O=C(Cc1ccccc1)Nc1nnc(-c2ccco2)s1
-3.5%	COc1ccc(NC(=S)NCC2CCN(c3ccc(OC)cc3)C2)cc1 (configuration not stated)
u	COc1ccc(S(=O)(=O)N2CCOCC2)cc1NC(=O)c1ccccc1-c1ccc(C(F)(F)F)cc1
-6.1%	COc1cc(NC(=O)Cn2nc(C(F)(F)F)c(Br)c2C)cc([N+](=O)[O-])c1
-2.8%	CCOC(=O)N1CCC(NC(=O)c2cc(S(=O)(=O)NCCc3ccccc3)ccc2F)CC1
-2.0%	Cc1cc(Cl)c(S(=O)(=O)Nc2cccc(O)c2)cc1OCC(N)=O
-3.8%	CCn1c(=O)c(C(=O)NCCCO)c(O)c2ccccc21
-3.6%	Nc1ncnc2c1nc(Sc1ccc(Cl)cc1)n2[C@H]1O[C@@H]2COP(=O)(O)O[C@H]2[C@@H]1O

# The list goes on, overlapping the part above by 2 compounds.
HPGD inh	SMILES
-3.8%	CCn1c(=O)c(C(=O)NCCCO)c(O)c2ccccc21
-3.6%	Nc1ncnc2c1nc(Sc1ccc(Cl)cc1)n2[C@H]1O[C@@H]2COP(=O)(O)O[C@H]2[C@@H]1O
-16.9%	Cc1[nH]c2ccccc2c1C1C(c2ccccc2)=NN=C(C(C)C)N1O (configuration not stated)
-19.0%	CC1(C)Cc2c(C#N)c(SCc3ccccc3)nc(N3CCOCC3)c2CO1
-7.5%	COc1ccc2c(CCNC(=O)CN3C(=O)c4ccccc4C3=O)c[nH]c2c1
-10.1%	CC(=O)c1cccc(NC(=O)N2C3CCC2CC(O)(c2cccnc2)C3)c1 (configuration not stated)
-8.8%	CCC(NC(=O)c1ccccc1NC(=O)c1ccccc1)C(=O)O (configuration not stated)
-11.4%	CC(C)(C)c1cc(NS(=O)(=O)c2ccc3c(c2)OCCO3)on1
-7.0%	CCn1ccc(C(=O)NC2=C(C#N)CCC2)n1
u	O=C(OCc1cc(=O)n2c(n1)sc1ccccc12)c1cccc(O)c1
-5.3%	COc1ccccc1NC(=O)Cn1c(=O)oc2ccccc21
-20.0%	Cc1ccc(N=Nc2ccc(N)cc2C)c(S(N)(=O)=O)c1
-16.6%	Cc1ccc(-c2csc(NC(=O)C3=COCCO3)n2)cc1
-4.8%	CC(=NCCc1ccccc1)C1=C(O)CCC1=O
-10.2%	CCOC(=O)c1c(NC(=O)C2CCCO2)sc(C(N)=O)c1C (configuration not stated)
-5.8%	COc1cc(NC(=O)CN2C(=O)NC(c3ccccc3)(c3ccccc3)C2=O)c(C)cc1[N+](=O)[O-]
-19.3%	COc1ccc(NS(=O)(=O)c2ccc(C)c(NC(=O)NC3CCCCC3)c2)cc1

# Continuation.
HPGD inh	SMILES
-20.1%	CN(c1ccc(F)cc1)S(=O)(=O)c1ccc(Cl)c(C(=O)Nc2ccc3c(c2)CCC3)c1
-19.1%	COC(=O)C1=C(CN2CCCc3ccccc32)NC(=O)NC1c1ccc(F)cc1 (configuration not stated)
-14.9%	Cc1nc(SCC(=O)Nc2c(C)n(C)n(-c3ccccc3)c2=O)n[nH]1
-7.7%	COc1cc2c(cc1OC)CN(c1nc(CN3CCCCC3)nc3sc4c(c13)CCCC4)CC2
-6.0%	O=C(Nc1cnc2ccccc2c1)N1CCCCC1
-3.5%	CCOc1ccc(-c2cc(CCCC(=O)NCCc3ccc(OC)c(OC)c3OC)no2)cc1
-5.6%	CCCCNC(=O)C1CCN(Cc2ccc(OCc3ccccc3)cc2)CC1
-19.8%	Nc1cccc2cc(S(=O)(=O)Nc3ccc(C(=O)O)cc3)ccc12
-21.2%	CC(=O)OC1c2ccccc2C(=O)N1Cc1ccccc1 (configuration not stated)
-28.8%	CC(=O)C1=C(O)C(=O)N(Cc2ccco2)C1c1ccc(F)cc1 (configuration not stated)
-8.0%	O=C(NCCN=C1NS(=O)(=O)c2ccccc21)c1ccco1
-6.2%	Cn1c(=O)c2ncn(CC(=O)Nc3ccc4c5c(cccc35)CC4)c2n(C)c1=O
-6.7%	CSc1nc(N)c2ncn([C@@H]3O[C@H](COP(=O)(O)OP(=O)(O)O)[C@H](O)[C@H]3O)c2n1
-13.4%	CCN(CC)S(=O)(=O)c1ccc(C(=O)Nc2cc3oc4ccccc4c3cc2OC)cc1
-4.1%	C/C(CC(=O)Nc1ccccc1C)=N\NC(=O)Cc1csc(N)n1

# An excerpt of these results, comma-delimited:
SMILES,HPGD inh
CCOc1ccc(-c2cc(CCCC(=O)NCCc3ccc(OC)c(OC)c3OC)no2)cc1,-3.5%
Cn1c(=O)c2ncn(CC(=O)Nc3ccc4c5c(cccc35)CC4)c2n(C)c1=O,-6.2%
COc1cc2c(cc1OC)CN(c1nc(CN3CCCCC3)nc3sc4c(c13)CCCC4)CC2,-7.7%
COC(=O)C1=C(CN2CCCc3ccccc32)NC(=O)NC1c1ccc(F)cc1 (configuration not stated),-19.1%
Nc1cccc2cc(S(=O)(=O)Nc3ccc(C(=O)O)cc3)ccc12,-19.8%

# Later entries.
HPGD inh	SMILES
-16.4%	CN(C)c1ccnc(Oc2ccc(F)cc2)c1C#N
-8.8%	Fc1ccccc1NC(=S)N/N=C/c1ccccc1Br
-9.6%	C=CCn1c(=O)c(C(=O)NCCN(CC)CC)c(O)c2ccccc21
u	CCN1CCN(C(=O)CSc2cc(=O)n(CC)c3ccccc23)CC1
-8.1%	CC(=O)OCCCCON1C(=O)c2ccccc2C1=O
-13.6%	O=C(O)c1ccccc1NC(=S)NC(NC(=O)c1ccccc1[N+](=O)[O-])C(Cl)(Cl)Cl (configuration not stated)
3.7%&-14.4%&2.8%	O=C(O)C1CCCNC1 (configuration not stated)
-13.4%	COc1ccc(C(=O)NC(=S)Nc2ccccc2N2CCOCC2)cc1[N+](=O)[O-]
-11.9%	N#Cc1ccc(COC(=O)c2ccc(N3CCCC3)c([N+](=O)[O-])c2)cc1
-14.2%	O=C1OCCN1C(=O)[C@H]1[C@H](c2ccc([N+](=O)[O-])cc2)C(c2ccc(F)cc2)=NN1c1ccc(Br)cc1
-17.6%	Cc1ccc(-c2nc(CS(=O)(=O)CC(=O)NC3CCCCC3C)c(C)o2)cc1 (configuration not stated)
-19.4%	Cc1nn(C)cc1/C=N\NC(=O)c1ccc(Cn2cc(Cl)cn2)cc1
-0.4%	Cc1ccccc1NC(=O)CSc1nc(Nc2ccccc2)nc(N2CCOCC2)n1
-10.1%	CCn1ncc(Br)c1C(=O)Nc1cc(C)cc(C)c1
u	Cc1cc2nnc(SC(C)C)n2c2ccccc12

# Further compounds:
HPGD inh	SMILES
-4.0%	CCC(=O)OC1(C)C(=O)C=C2C=C(CCCC(=O)OC)OC=C2C1=O (configuration not stated)
u	O=C(N/N=C/c1c[nH]c2ccccc12)c1cc(-c2ccc(-c3ccccc3)cc2)n[nH]1
-15.5%	O=C(CCS(=O)NCc1ccccc1)NCc1ccccc1 (configuration not stated)
12.6µM*	CC(C)(C)c1ccc(-c2noc(CCC(=O)NCC3CCCO3)n2)cc1 (configuration not stated)
u	O=C(Nc1ccc(-c2nc3ccccc3[nH]2)cc1)c1ccccc1NS(=O)(=O)c1ccc(F)cc1
-6.0%	O=C(OCc1ccc(Cl)c(Cl)c1)c1cnccn1
5.01µM*	COc1ccc(S(=O)(=O)NCc2ccco2)cc1-c1nnc2c3ccccc3c(C)nn12
-9.1%	CC1(C)CC(=O)C2=C(C1)N1C(=C(C#N)C2c2ccc(Cl)cc2)N=C(N)c2ccccc21 (configuration not stated)
-10.7%	Cc1cccc(/C=N/NC(=O)NC2CCCCC2)c1
-11.2%	Cc1cc(C)n2nc(S(=O)(=O)NCCc3ccccc3)nc2n1
u	O=C(Cn1nnc2ccccc21)N/N=C\c1cccs1
-29.2%	COc1ccc(S(=O)(=O)Nc2ccc3c(c2)OCCO3)cc1Cl
-8.8%	COc1cc2[nH]c(=S)n(NC(=O)c3ccccc3)c(=O)c2cc1OC
u	CCc1c(C#N)c(N)nc(SCC(=O)OCc2ccccc2)c1C#N
-10.5%	Cc1ccc(NS(C)(=O)=O)c(C(=O)c2ccccc2)c1

# Next results:
HPGD inh	SMILES
-6.0%	CCn1nnnc1SCC(=O)N1c2ccccc2Sc2ccccc21
-14.3%	CCCCC(=O)NC(NC(=S)N1CCOCC1)C(Cl)(Cl)Cl (configuration not stated)
-4.5%	COC(=O)CSc1nnc([C@H](Cc2ccccc2)NC(=O)OC(C)(C)C)o1
-6.1%	O=S(=O)(/N=C/c1ccccc1O)c1cccs1
-8.4%	COc1ccc(NC(=O)C2CCCN(c3c4c(nc5ncnn35)CCC4)C2)cc1OC (configuration not stated)
-23.1%	Cc1cc(N/N=C/c2ccc(Cl)cc2Cl)nc(NCc2ccccc2)n1
-11.7%	Cc1cc(C)nc(SCc2nnc(SCC(=O)N3CCCc4ccccc43)n2C)n1
-2.3%	CS(=O)(=O)Cc1nc2ccccc2oc1=O
-27.4%	O=C(Nc1ccccc1C(=O)OCC(=O)c1c[nH]c2ccccc12)c1ccco1
-15.0%	COc1cccc(CN2CCN(C(=O)c3ccc(-c4ccccc4)cc3)CC2)c1
-14.3%	Cc1cc(C(=O)NCCC2=CCCCC2)no1
-8.6%	CCCCn1c(C)csc1=Nc1cccnc1
-13.9%	CC(=O)Oc1ccc(C(=O)[C@H]2[C@H]3C(=O)N(c4ccc5ccccc5c4)C(=O)[C@H]3[C@@H]3C=CC=NN32)cc1
-6.2%	Cc1ccc(C2C(C#N)=C(N)Oc3n[nH]c(-c4cccs4)c32)cc1 (configuration not stated)
-8.1%	CCn1c(CCNC(=O)c2cccs2)nnc1SCC(=O)NC1CCCCC1

# Following part
HPGD inh	SMILES
-8.7%	Cc1cc(C)n2nc[n+](C)c2n1
-8.8%	Cc1noc(C)c1CS(=O)(=O)c1ccc(Br)cc1
31.6µM*	CCc1cc(C(=O)COc2ccccc2F)c(O)cc1O
-9.6%	CCC(CCC(=O)Nc1ccn(-c2ccccc2)n1)C(=O)O (configuration not stated)
-8.9%	COc1ccc(OC(=O)c2cn(C)nc2C(F)(F)F)cc1
-13.8%	O=C(O)CC12C[C@H]3C[C@@H](C1)CC(n1ncc(N4CCN(c5ccccc5)CC4)c(Cl)c1=O)(C3)C2
-10.0%	CCCC(=O)Nc1cc2c(cc1C(=O)c1ccccc1)OCCO2
-10.7%	CCSc1nc2ccccc2n1Cc1nc(N)nc(N(C)C)n1
-9.1%	Cc1ccc(SCC2(O)CCN(S(=O)(=O)c3ccc(Cl)cc3)CC2)cc1
-1.0%	CC(C)=O
-2.5%	O=S(=O)(c1cccc(F)c1)N1CCN(Cc2ccc3c(c2)OCO3)CC1
5.0%	CC(C)NCCOCCOc1ccc(Cl)cc1Br
4.3%	Cc1cc(C)c(NC(=O)CCCOC(=O)C2=COCCO2)c(C)c1
-9.9%	Cc1ccc(-c2nnn(CC(=O)N(Cc3cccs3)C(C(=O)NC(C)(C)C)c3ccco3)n2)o1 (configuration not stated)
-10.8%	COc1cc(CNCCc2ccc(F)cc2)ccc1OCc1ccc(Cl)nc1

# Remaining list, next part
HPGD inh	SMILES
-13.8%	O=S(=O)(c1ccc(F)cc1)N1CCN(C(=S)NCc2ccco2)CC1
-9.7%	COc1ccc(/C=C/C(=O)c2cc(Br)ccc(=O)c2O)cc1
-18.6%	O=C(c1ccccc1CCc1ccccc1)N1CCOCC1
-25.2%	CN1/C(=C\C(=O)COC(=O)C2COc3ccccc3O2)C(C)(C)c2ccccc21 (configuration not stated)
3.7%	Cc1cccc(NC(=O)CCNS(=O)(=O)c2cccc3nsnc23)c1
-23.7%	Cc1ccc(C(=O)CNc2ccc(Br)cc2)cc1
14.1µM*	COc1cc(/C=C(/C#N)c2nc3ccccc3c(=O)[nH]2)ccc1O
-16.2%	CCOC(=O)c1sc(=S)n(CC)c1N
-17.7%	O=C(CSc1ccc2ccccc2n1)Nc1nsc(-c2ccc(Cl)cc2)n1
-10.2%	Cc1ccc(CN2CCS(=O)(=O)CC2)cc1
-6.3%	CC(C)(Oc1ccc(Cl)cc1)C(=O)OCC(=O)N1CCCC1
-9.8%	O=C(CSc1nc2ccccc2[nH]1)NCC1CCCO1 (configuration not stated)
-13.6%	CN(Cc1ccccc1)C(=O)c1ccccc1NC(=O)c1ccco1
-3.2%	CC(=O)[C@@H]1[C@@H](C(=O)c2ccc(C)cc2)[C@]2(C(=O)Nc3ccccc32)[C@H]2C=Cc3cc(F)ccc3N12
-1.9%	O=C(O)C12CC3CC(C1)CC(n1cnc(Cl)n1)(C3)C2

# (listing goes on)
HPGD inh	SMILES
1.6%	O=C(/C=C/c1ccccc1)NC1CCS(=O)(=O)C1 (configuration not stated)
-13.0%	COC(=O)N/N=C/c1c(C)cc(C)cc1C
-12.4%	OC(COc1ccc2c(c1)OCO2)CN1CCc2ccccc2C1 (configuration not stated)
-19.7%	CCOC(=O)c1cnc2c(Cl)c(Cl)ccc2c1N1CCN(C)CC1
3.1%	Cc1cccc(N(CC(=O)O)CC(=O)O)c1
-9.4%	Cc1ccc(NC(=O)N2CCC(O)(c3ccc(Cl)cc3)CC2)cc1
3.8%	CCOC(=O)CSc1nc(CC)nc2ccccc12
u	Cc1ccc(O)c(CC(C)C)n1
-9.7%	O=C(NC1CCCC1)C(c1ccccn1)N(C(=O)c1csnn1)C1CCCCC1 (configuration not stated)
1.5%	CCn1c(SCC(=O)Nc2nccs2)nnc1-c1ccccc1
-17.5%	CC(C)OC(=O)c1ccc(NC(=O)C2C3CC4OC(=O)C2C4C3)cc1 (configuration not stated)

# Bioassay records from PubChem BioAssay.
